Assay outcomes from PubChem BioAssay.
KCNQ2 pot: KCNQ2 (rat) channel potentiation | O88943 | hit rate 0.54% among 310,000 | B-score at 10 µM | CHO-K1 KCNQ2, FluxOR thallium flux fluorescence; hits give high values;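 active = fluorescence ratio B-score at least 3 SD of library B-scores, with initial fluorescence B-score within 3 SD, cut at about 5.3 in these data; same plate scores as AID 2156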;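 also: B-score of peak minus minimum over baseline fluorescence ratio after K+ and Tl+ stimulus; positive B-score means potentiation of KCNQ2 with more thallium influx and brighter signal; only the inactives scoring about 0 or higher are listed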
Target sequence (O88943 whole entry, looked up): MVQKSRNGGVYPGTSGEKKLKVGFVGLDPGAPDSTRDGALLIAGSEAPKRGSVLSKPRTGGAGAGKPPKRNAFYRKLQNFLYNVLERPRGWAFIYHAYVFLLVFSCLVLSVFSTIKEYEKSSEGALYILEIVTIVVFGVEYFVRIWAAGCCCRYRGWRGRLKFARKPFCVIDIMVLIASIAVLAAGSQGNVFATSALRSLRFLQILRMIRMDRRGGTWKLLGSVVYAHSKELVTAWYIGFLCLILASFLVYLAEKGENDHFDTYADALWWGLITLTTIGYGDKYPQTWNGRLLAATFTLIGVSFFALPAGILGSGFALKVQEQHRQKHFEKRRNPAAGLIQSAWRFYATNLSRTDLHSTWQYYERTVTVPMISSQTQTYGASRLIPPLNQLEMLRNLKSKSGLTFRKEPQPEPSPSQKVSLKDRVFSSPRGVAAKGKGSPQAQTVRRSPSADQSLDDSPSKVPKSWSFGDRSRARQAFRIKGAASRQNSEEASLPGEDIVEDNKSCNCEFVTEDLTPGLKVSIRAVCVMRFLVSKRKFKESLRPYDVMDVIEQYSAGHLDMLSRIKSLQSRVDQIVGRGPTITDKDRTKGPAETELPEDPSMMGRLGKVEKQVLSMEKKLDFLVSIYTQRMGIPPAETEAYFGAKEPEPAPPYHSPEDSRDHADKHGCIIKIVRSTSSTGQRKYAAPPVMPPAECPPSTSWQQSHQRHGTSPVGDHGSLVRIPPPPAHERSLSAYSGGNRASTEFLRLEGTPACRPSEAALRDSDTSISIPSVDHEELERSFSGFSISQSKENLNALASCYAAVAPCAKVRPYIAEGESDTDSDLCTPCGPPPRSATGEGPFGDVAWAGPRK
KCNQ2 pot baseline: further read-out of KCNQ2 pot, marked with its call; B-score; compound at 10 µM; measured here: initial fluorescence intensity artifact check;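 brightness before thallium and not channel activity; 0 = typical well and far values either way flag optical interference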
An asterisk follows results filed as active; . = not tested or not shown.

Start of the listing, in advance:
Under each structure – KCNQ2 pot baseline, KCNQ2 pot
COc1ccc(S(=O)(=O)N(C)CC(=O)NCCC2=CCCCC2)cc1
→ 0.78, 0.32
CC(=O)Nc1ccc(NC(=O)C2CCN(C(=O)c3ccc([N+](=O)[O-])cc3)CC2)cc1
→ -0.64, 0.21
CCCNC(=O)COC(=O)c1ccc(OCC(=O)Nc2ccccc2OC)c(OC)c1
→ 0.01, 1.29
Cc1ccc(-c2nnnn2C2C/C(=N\NC(N)=S)C3OCC2O3)cc1 (stereo not drawn)
→ -0.38, 0.97

Main list, repeating the preview:
Under each structure – KCNQ2 pot baseline, KCNQ2 pot
COc1ccc(S(=O)(=O)N(C)CC(=O)NCCC2=CCCCC2)cc1
→ 0.78, 0.32
CC(=O)Nc1ccc(NC(=O)C2CCN(C(=O)c3ccc([N+](=O)[O-])cc3)CC2)cc1
→ -0.64, 0.21
CCCNC(=O)COC(=O)c1ccc(OCC(=O)Nc2ccccc2OC)c(OC)c1
→ 0.01, 1.29
Cc1ccc(-c2nnnn2C2C/C(=N\NC(N)=S)C3OCC2O3)cc1 (stereo not drawn)
→ -0.38, 0.97
COCCn1cnc2c1c(=O)n(Cc1ccccc1C#N)c(=O)n2Cc1ccccc1
→ -0.05, 1.61
O=C(Nc1ccc(Nc2ccccc2)cc1)c1cc([N+](=O)[O-])ccc1Cl
→ -1.32, 0.88
Cc1cccc(NC(=O)c2cccc(C(=O)Nc3cccc(C)n3)c2)n1
→ -0.75, 1.94
CC1CN(C(=O)CCC(=O)NCCCN2C(C)CCCC2C)c2ccccc2O1 (stereo not drawn)
→ -0.12, 1.16
Cc1ccc(C)c2[nH]c(=O)c(CN(Cc3ccco3)C(=O)Nc3ccccc3)cc12
→ ., -5.59
C=CCN1C(=O)C(CC(=O)O)SC1=Nc1ccc(C(=O)O)cc1 (stereo not drawn)
→ -0.59, 0.9
O=C1Nc2ccccc2C(=O)N2[C@H](c3cccc(Br)c3)[C@@H]3C(=O)N(Cc4ccccc4)C(=O)[C@@H]3[C@H]12
→ 0, 0.07
O=C(/C=C/Nc1ccc(Cc2ccc(N/C=C/C(=O)C(F)(F)F)cc2)cc1)C(F)(F)F
→ -0.77, 0.61
CCOC(=O)N1CCN(C(=O)CN(c2cc(C(F)(F)F)ccc2Cl)S(C)(=O)=O)CC1
→ 0.5, 1.15
Cc1csc(NC(=O)CSc2nnc3ncccn23)n1
→ 1.47, 1.17
Cn1cnnc1SCc1ccc(C(=O)N/N=C/c2cccs2)cc1
→ -0.3, 0.12
CC(C)C(C)(C#N)NC(=O)CSc1nnc(C(F)(F)F)n1C (stereo not drawn)
→ 2.21, 0.37
O=[N+]([O-])c1cccc(-c2csc(Nc3ccccc3)n2)c1
→ -1.4, 0.15
Cc1onc(-c2ccccc2)c1C(=O)Nc1nc2c(s1)CCCC2
→ -0.15, 0.2
CN1C(=O)c2ccc(NC(=O)CSc3ccccc3)cc2C1=O
→ -0.73, 1.13
Cn1cc(Br)c(C(=O)NNC(=O)c2ccc(Cl)cc2)n1
→ 1.56, 2.31
O=C(N/N=C/c1ccc(OC(=O)c2ccccc2Br)cc1)c1ccccn1
→ -0.52, 0.18
O=c1c2ccccc2[nH]c(=S)n1CCCN1CCN(c2ccccc2)CC1
→ 0.47, 0.02
CCCc1ccc(-c2ccc(C(=O)O)cc2)nc1
→ 1.54, 0.47
CC(C)OC(=O)CSc1nnc2c3ccccc3n(C)c2n1
→ -1, 0.04
CC(C)OC(=O)NCCOC(=O)Nc1ccccc1Cl
→ 2.77, 0.94
CCOc1ccc(NC(=O)c2sc(NC(C)=O)c(C(=O)OC)c2C)cc1
→ 0.77, 0.03
CCN1C(=O)CSC1=Nc1cccc(C(=O)O)c1
→ -0.36, 0.54
Cn1c(C(=O)NCC2CCCO2)cc2oc3ccccc3c21 (stereo not drawn)
→ 1.49, 0.79
O=C(CSc1nc2ccccc2o1)N1CCN(C(=O)c2ccco2)CC1
→ 1.5, 0.87
C=CCn1c(-c2ccc(Cl)cc2)cnc1SC(C)C(N)=O (stereo not drawn)
→ -0.52, 1.24
COc1ccc(C(=O)COC(=O)CCc2nc3ccccc3[nH]c2=O)cc1Br
→ 0.64, 0.3
CCCN1C(=O)CSC1=Nc1ccccc1
→ -1.49, 0.1
Cc1nc2cc(-c3ccc(Cl)cc3)nn2c(NCCN(C)C)c1C
→ -1.26, 2.15
O=C(NCc1ccc(F)cc1Cl)C1CCN(S(=O)(=O)N2CCC3(CC2)OCCO3)CC1
→ -1.28, 5.18
COc1ccc(OC)c(S(=O)(=O)N2CCCC(C(=O)N3CCCC3)C2)c1 (stereo not drawn)
→ -0.33, 0.75
Cc1cc(NS(=O)(=O)c2cn(C)nc2C)no1
→ -2.29, 0.93
Cc1cc(C)cc(N(CC(=O)NCCSCc2ccco2)S(C)(=O)=O)c1
→ 0.1, 0.26
Cc1ccccc1OCC(=O)N/N=C/c1ccc(N2CCOCC2)o1
→ 1.65, 0.3
CC(=O)N1CCN(c2ccc(Oc3nnnn3-c3ccccc3)cc2)CC1
→ 0.05, 1.35
CCC1(c2ccccc2)NC(=O)N(CC(=O)Nc2cc(S(=O)(=O)N3CCCCCC3)ccc2OC)C1=O (stereo not drawn)
→ -0.01, 0.42
O=C(Nc1ccc2c(c1)CCC2)c1ccccc1
→ 0.1, 3.6
CCC(=O)Nc1ccc2c(c1)ncn2-c1ccccc1OC
→ 0.48, 1.09
Clc1ccc(-c2c[n+]3c(n2-c2ccccc2)SCC3)cc1
→ 0.34, 0.72
CC(C)Oc1ccccc1C1CC(=O)Nc2c1c(=O)n(C)c(=O)n2C (stereo not drawn)
→ 0.31, 0.59
Cc1nnc(C)n1/N=C/c1cccc([N+](=O)[O-])c1
→ 0.73, 1.13
C=CCN(CC(=O)NC1CCS(=O)(=O)C1)S(=O)(=O)c1ccccc1C(F)(F)F (stereo not drawn)
→ -0.19, 1.08
COc1ccc(C(=O)NCCCNC(=O)c2ccccn2)cc1
→ 0.37, 0.07
O=C(NC1CC1)C1CCN(C2CCN(C(=O)c3ccc4cccc(F)c4n3)CC2)CC1
→ 2.37, 0.68
Cc1ccc(/C=C/C(=O)OCC(=O)NCCN2C(=O)CSC2=O)o1
→ 0.17, 0.04
O=C1CCC(C(=O)Nc2ccccc2)N1 (stereo not drawn)
→ 0.07, 0.16
Cc1c(Cl)cccc1NC(=S)NN1CCOCC1
→ 1.21, 0.12
S=C(NC1CCCC1)N1CCN(c2ncccn2)CC1
→ -1.67, 1.22
N#CCC(=N)N1CCN(c2ccc(Cl)cc2)CC1
→ 0.01, 0.68
COCCNC(=S)NCCCNc1nc2cc3c(cc2cc1C#N)OCO3
→ -0.39, 1.21
CCOc1ccc2nc(SCC(=O)N3CCN(C(=O)c4ccco4)CC3)sc2c1
→ -0.54, 0.79
Cc1ccccc1N(CC(=O)NC1CCCCC1)C(=O)CCCC(=O)Nc1ccccn1
→ 2.22, 0.02
CC(=O)NC(Cc1c[nH]c2ccccc12)C(=O)NCCc1ccccn1 (stereo not drawn)
→ -0.17, 1.6
Cc1ccccc1CS(=O)(=O)c1nnc([C@H](CC(C)C)NC(=O)OC(C)(C)C)o1
→ ., -5.58
CCOC(=O)N1CCN(CC(=O)Nc2ccc(C)cc2)CC1
→ -0.62, 0.06
CC(=O)c1ccc(N2CCN(C(=S)Nc3ccc(Cl)c(Cl)c3)CC2)cc1
→ -0.53, 0.07

Next part.
Under each structure – KCNQ2 pot baseline, KCNQ2 pot
Cc1cccn2c(=O)nc(SCC(=O)NCc3ccc(F)cc3)nc12
→ -0.42, 0.24
COc1ccc(C(=O)O/N=C(\N)c2ccccc2Cl)cc1OC
→ 0.28, 1.98
CC(C)c1ccc(NC(=O)CSc2nc3ccsc3c(=O)n2CCC(=O)O)cc1
→ 1.11, 0.29
O=C(NCc1ccccc1)c1cc[n+](Cc2ccccc2)cc1
→ -1.53, 0.48
C=C(C)Cn1c(-c2ccncc2)n[nH]c1=S
→ 1.64, 1.08
COc1ccc(-c2c(C)nn3c(N4CCOCC4)cc(C)nc23)cc1OC
→ -0.41, 0.04
CCCC(=O)Nc1cc(C(=O)O)ccc1Sc1ccccc1
→ 0.17, 0.02
Cc1sc2ncnc(SCC(=O)NC(=O)NCc3ccco3)c2c1C
→ 0.62, 1.35
C=CCOc1c(Cl)cc(CNCCC)cc1Cl
→ -1.2, 1.7
CCCc1cc(C(=O)Nc2nccs2)cs1
→ 0.92, 0.1
CCOC(=O)c1cccc(NC(=O)Nc2cc(OC)ccc2OC)c1
→ 0.01, 1.24
CCOC(=O)CSc1nc2sc3c(c2c(=O)[nH]1)CCCC3
→ -0.16, 1.44
C[n+]1ccccc1/C=C/c1ccccc1Cl
→ 0.53, 0.65
CC(C)OCCCNC(=O)CNC(=O)c1ccc(Cl)c(Cl)c1
→ -0.12, 0.34
CCCCCn1c(N2CCN(c3cccc(Cl)c3)CC2)nc2c1c(=O)[nH]c(=O)n2C
→ -1.37, 0.06
COc1ccc(CCNC(=O)C(C(=O)c2ccc(F)cc2)n2ccccc2=O)cc1OC (stereo not drawn)
→ -1.28, 2.71
NC(=O)c1ncn([C@@H]2O[C@H](CO)[C@@H](O)[C@H]2O)n1
→ 2.08, 0.03
Cc1cc(NC(=O)COC(=O)CCC(=O)c2ccc(F)cc2)no1
→ -3.22, 1.05
O=S(=O)(c1ccc(Br)s1)N1CCN(c2ccccc2)CC1
→ -1.29, 0.24
COc1ccc2c(c1)CC/C2=N\NC(=O)c1ccccc1
→ 0.04, 0.34
CCCCNC(=O)N1CCN(C(c2ccccc2)c2ccccc2)CC1
→ 2.45, 0.59
COc1ccccc1NC(=O)Cn1ncc2c1-c1ccccc1OC2
→ 0.68, 0.76
O=C(NCCC1=CCCCC1)C1CCN(c2nc3ccccc3o2)CC1
→ 0.74, 1.43
Cc1cccc(NC(=O)C2CCN(S(C)(=O)=O)CC2)c1C
→ 0.46, 0.32
Cc1ccc(-c2nc3ccccc3[nH]2)cc1NC(=O)c1ccco1
→ 0.07, 1.38
Cn1ccc(C(=O)OCC(=O)c2ccccc2)n1
→ 3.46, 0.93
COc1ccc(S(=O)(=O)N2CCC(C(=O)Nc3ccccc3N3CCCCC3)CC2)cc1OC
→ 1.54, 0.13
Cc1ccc(CNC(=O)C2=NNC(=O)CC2)cc1
→ -0.02, 1.63
O=S(=O)(c1ccc(Cl)cc1)N1CCN(Cc2ccc(O)c3ncccc23)CC1
→ -0.2, 2.49
COc1cc(NC(=O)CSc2ncnc3sc4c(c23)CCCC4)c(C(=O)O)cc1OC
→ -1.37, 1.59
CCN1CCN(C(=O)CCCCCn2c(=O)[nH]c3cc(C(=O)OC)ccc3c2=O)CC1
→ -0.69, 1.67
COc1ccc(S(=O)(=O)N2CCOCC2)cc1Cl
→ -1.9, 0.03
NC(=O)CC(NC(=O)Cc1ccc(Cl)cc1)c1ccc(NC2CCCC2)c([N+](=O)[O-])c1 (stereo not drawn)
→ 0.67, 0.59
Cc1c(NC(=O)Nc2cccc(Cl)c2)c(=O)n(-c2ccccc2)n1C
→ -0.53, 1.08
COC(=O)CCC(NC(=O)c1cc(C)oc1C)C(=O)OC (stereo not drawn)
→ 0.67, 0.5
COc1cc(/C=C/c2cc[n+](C)cc2)ccc1OCC(=O)Nc1ccccc1
→ 0.63, 2.31
O=C(NCCc1ccc(Cl)cc1)c1ccc(=O)[nH]c1
→ -0.7, 1.18
Cn1c(SCCCC(=O)c2ccccc2)nnc1-c1ccncc1
→ -0.14, 0.79
O=S1c2ccccc2Nc2ccccc21
→ 0.02, 1.01
CC(=O)N1CCc2c(sc(NC(=O)C3CCN(S(=O)(=O)c4cccs4)CC3)c2C(N)=O)C1
→ 1.5, 1.31
O=C(NC(=S)Nc1ccc(S(=O)(=O)Nc2ncccn2)cc1)c1ccc(Br)cc1
→ -0.15, 0.88
O=C(CSc1nc2cc(Cl)ccc2s1)c1cc2ccccc2o1
→ 1.51, 4.75
Cc1ccc(NC(=O)c2onc(C)c2Cl)cc1
→ -0.8, 2.27
Cc1ccc(NC(=O)CCNS(=O)(=O)c2ccc3c(c2)oc(=O)n3C)cc1
→ -1.18, 0.87
O=C(NNC(=O)C(O)c1ccccc1)NC1CCCCC1 (stereo not drawn)
→ 0.47, 0.35
CCN1C(=O)[C@@H]2[C@H](C1=O)[C@@H]1C(=O)Nc3ccccc3C(=O)N1[C@@H]2c1cccc(OC)c1
→ -0.84, 1.23
Cc1cc(/C=C2/C(=O)NN(c3ccccc3)C2=O)c(C)n1-c1cccc(O)c1
→ 0.16, 0.27
CN(C(=O)CCNC(=O)Cn1ccc2ccccc2c1=O)c1ccc(Br)cc1
→ 0.7, 0.35
CCOC(=O)N1CCC(NC(=O)c2cc(C(=O)Nc3cccc(OC)c3)ccc2CO)CC1
→ 6.99, 0.61
Brc1ccccc1-c1nnc(CSc2nnnn2-c2ccccc2)o1
→ -1.29, 1.45
O=C(CN1CCN(c2ccccc2O)CC1)Nc1ccc([N+](=O)[O-])cc1Br
→ -2.37, 1.14
COc1ccccc1CNS(=O)(=O)c1c(C)[nH]c(=O)[nH]c1=O
→ -0.68, 0.83
Cc1nnc(SCC(=O)Nc2ccccc2)n(N)c1=O
→ 0.26, 0.26
COc1cc2[nH]c(=S)nc(NCc3cccc(Cl)c3)c2cc1OC
→ -0.73, 0.74
Cc1ccc2nc(-c3ccccc3C)oc(=O)c2c1
→ 0.65, 0.77
CCCCn1nnnc1SCC(=O)N1CCCC1
→ -0.92, 0.04
CC(C)Cc1nnc(NC(=O)CCC(=O)N2CCN(c3ccc([N+](=O)[O-])cc3)CC2)s1
→ -0.3, 0.69
Cc1ccc(S(=O)(=O)NCCCCCC(=O)N(C)C)cc1
→ -0.43, 2.55
CC(C)CCn1c(=O)c2ccccc2n2c(CN3CCOCC3)nnc12
→ -0.34, 0.63
Cc1cc(S(=O)(=O)N2CCCC2)ccc1OCC(=O)NCc1ccccn1
→ -0.43, 1.61
Cn1c(SCC(=O)NCc2ccco2)nc2ccccc2c1=O
→ -0.08, 0.14

This is a subset, so the mix of outcomes need not match the whole.
